Compound activity as filed in PubChem.
RE007 growth inh: qHTS Assay for Inhibitors of the HIV-1 protein Vpr | S. pombe RE007 Vpr strain, BacTiter-Glo ATP luminescence, 24 h; control for the full effect not named in the record | Potency, µM (doses to about 92.2 µM), inactives show at the highest dose activity change, negative = less growth | actives 0.21% (n = 360,000) | AID 651644, 2012; active = well fitted falling curve with a large enough effect; inconclusive = small, poorly fitted or top-dose-only effect; inactive = no such curve, though single readings can be large or run the other way;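 further: on the % scale 0 is the no-effect control and ±100 the full control effect; nearly all actives have a fitted effect of over 50% in size; the assay follows cell death caused by Vpr and the record does not say whether a fall means rescue or toxicity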
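Fission yeast strain RE007, carrying one chromosomally integrated HIV-1 vpr copy, was seeded at OD 0.01 in PMG+AL medium with 23 nL pinned compound. After 24 h at 30 °C and 99% humidity, viability was read by BacTiter-Glo luminescence.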
SARS PLP yeast: qHTS of Yeast-based Assay for SARS-CoV PLP; S. cerevisiae expressing SARS-CoV PLpro, growth rescue; control for the full effect not named in the record; Potency, µM (top dose mostly 32.9 µM), inactives show at the highest dose activity, positive = growth rescue; actives 0.19% (n = 330,000); active means well fitted rising curve with a large enough effect; inconclusive means small, poorly fitted or top-dose-only effect; inactive means no such curve, though single readings can be large or run the other way; further: 0% is about no effect; nearly all actives have a fitted effect of over 55% in size; growth read by luminescence after 48 h
2A StopGo: High Throughput Screening for Foot and Mouth Disease Virus Antivirals | human cells with a luciferase reporter of 2A StopGo recoding; control for the full effect not named in the record | Potency, µM (top dose mostly 57.9 µM), inactives show at the top dose signal change, negative = less light | actives 1.2% (n = 410,000) | AID 1159524, 2015; active = well fitted falling curve with a large enough effect; inconclusive = small, poorly fitted or top-dose-only effect; inactive = no such curve, though single readings can be large or run the other way; tested in HEK293T cells; further: on the % scale 0 is the no-effect control and ±100 the full control effect; nearly all actives have a fitted effect of over 45% in size; luciferase light after 4 h
* hit, by the source's call; ? = inconclusive; [ ] = another dose, or the depositor's remark. Potency means the concentration at half of the fitted maximal effect. This is a subset (hit frequency here may not be typical).

SMILES	RE007 growth inh	SARS PLP yeast	2A StopGo
CC(=O)N=C1C=CC(=CN(O)C(C)(C)Cc2ccccc2)C=C1	5.1%	-3.5%	8.0%
COC(=O)[C@@]12CCCN1[C@H](c1ccc(-c3cccc(Cl)c3)cc1)[C@H]1C(=O)N(C)C(=O)[C@H]12	1.8%	-13.5%	?
CN(CC(=O)Nc1ccccc1C(=O)NC1CC1)Cc1ccc(Cl)cc1	-3.3%	2.4%	-25.8%
COCCn1c(C)cc(C(=O)COC(=O)CNC(=O)c2ccco2)c1C	0.9%	14.4%	-14.6%
O=C(COC(=O)c1ccc([N+](=O)[O-])s1)NCCc1ccccc1	?	2.4%	-4.6%
O=C(COC(=O)/C=C/c1cccc(Br)c1)NC1CC1	3.7%	5.8%	-16.7%
O=C(CCNS(=O)(=O)c1ccccc1)NNC(=O)COc1ccccc1F	2.0%	0.8%	-16.1%
COC(=O)[C@@]12CCCN1[C@H](c1ccc(-c3ccc4c(c3)OCO4)cc1)[C@H]1C(=O)N(C)C(=O)[C@H]12	-10.1%	-21.1%	-2.3%
COC(=O)C1=C(c2cccc(C#N)c2)C[C@@H]2CC[C@H]1N2C(=O)N1CCOCC1	4.9%	2.2%	-17.0%
Nc1nnc(SCC(=O)NCC(=O)Nc2ccc(F)c(F)c2F)s1	4.2%	0.2%	-6.9%
CC(C)N(C(=O)[C@H]1C[C@H](CC(=O)NCC23CC4CC(CC(C4)C2)C3)C(=O)N2CCc3c([nH]c4cc(-c5ccco5)ccc34)[C@]12C)C(C)C	-2.4%	-3.8%	-26.0%
COc1ccc2sc(-c3ccc(S(C)(=O)=O)cc3)c(-c3ccc(SC)cc3)c2c1	7.2%	-6.6%	-13.0%
CN(CCOc1ccccc1)C(=O)CNC(=O)c1ccc(C(C)(C)C)cc1	2.8%	-3.2%	6.9%
CCCn1c(SCC(=O)N(C)CC(=O)Nc2ccc(C)cc2)n[nH]c1=O	-19.1%	0.7%	-11.2%
COC(=O)[C@@]12CCCN1[C@H](c1ccc(-c3ccccc3)cc1)[C@@H]1C(=O)N(C)C(=O)[C@@H]12	-7.3%	4.1%	0.0%
CN(C)S(=O)(=O)c1ccc(C(=O)NC(=O)CSc2nncs2)cc1	5.5%	0.1%	-5.3%
COc1cc(OC)cc(-c2c(-c3ccc(C(C)=O)cc3)c3cc(-c4cccc5[nH]ccc45)ccc3n2C)c1	19.3%	1.9%	4.8%
CC(=O)c1cccc(NC(=O)C2=CN3CCS(=O)(=O)N=C3C=C2)c1	-1.0%	1.3%	-1.4%
O=C(CC1C[C@H](C(=O)N2CCOCC2)[C@@]2(CCC3CCCC3)c3[nH]c4ccccc4c3CCN2C1=O)NCc1ccco1 (stereo partly drawn)	10.2%	-0.2%	11.8%
CC1CCCC(NC(=O)Cn2cc([N+](=O)[O-])ccc2=O)C1C (stereo not drawn)	2.2%	0.4%	-5.0%
C/C(=N/OC(=O)C1CC1c1ccccc1)c1ccccc1 (stereo not drawn)	-8.5%	-16.9%	16.7%
CCCCN1C(=N)N([C@@H](CCC)CN2CCC[C@H]2CN2C(N)=NC[C@@H]2Cc2ccccc2)C[C@H]1[C@H](C)CC	12.1%	5.0%	-10.8%
COC(=O)c1ccccc1NC(=O)N1CCN(Cc2ccco2)CC1	6.7%	-2.0%	-19.8%
Cc1ccsc1CN(C)C(=O)c1cc(S(=O)(=O)N2CCOCC2)ccc1N1CCCC1	-9.8%	2.6%	6.2%
CN(C)c1ccc(C(=O)Nc2cccc(S(=O)(=O)N3CCCC3)c2)cc1	9.5%	-0.1%	25.2%

Remaining list, next part:
SMILES	RE007 growth inh	SARS PLP yeast	2A StopGo
COCCN(Cc1ccccc1)C(=O)c1ccc2c(c1)NC(=O)CS2	5.4%	-3.9%	-0.5%
CCOC(=O)C1=CNS(=O)(=O)NC1c1ccc(Br)cc1F (stereo not drawn)	0.0%	-16.5%	-11.3%
Cc1ccc(S(=O)(=O)N2[C@@H](c3ccccc3F)C(C(=O)O)=CC[C@H]2c2ccc(C(C)C)cc2)cc1	-4.8%	0.5%	16.3%
O=C(CN1CCN(C(=O)C2CCC2)CC1)Nc1ccc(F)cc1	-2.0%	-3.3%	-24.3%
C#CCN1C=C(C(=O)OCC)C(C)N(Cc2ccccc2I)S1(=O)=O (stereo not drawn)	5.2%	-12.0%	?
Cc1ccccc1NC(=O)Cc1nc(COC(=O)Cc2c(F)cccc2Cl)cs1	-2.6%	4.7%	3.2%
CCCCNc1c(-c2ccc(SC(C)CC)cc2)nc2ccccn12 (stereo not drawn)	?	-1.7%	?
COc1ccc([C@H]2CC(=O)C=C(c3ccc(-c4ccccc4)c(F)c3)C2)cc1	-12.2%	-12.1%	29.5%
CCC(C)[C@H]1CNCCN1CCCc1cc(OC)c(OC)c(OC)c1 (stereo partly drawn)	-12.0%	1.7%	-18.7%
Cc1noc(C)c1NC(=O)Nc1cccc2c1O[C@H](CN(C)S(=O)(=O)c1ccccc1)[C@@H](C)CN([C@H](C)CO)C2=O	5.1%	-2.1%	-11.8%
CCOC(=O)c1nnn(CC(=O)NC(=O)Nc2ccccc2)c1C(=O)OCC	-6.5%	3.2%	-3.3%
CN(CC(=O)Nc1ccc(F)c(F)c1F)C(=O)CCCc1nc2ccccc2c(=O)[nH]1	9.4%	-5.5%	-6.0%
C=CC[C@H](CC(=O)N[C@H](CO)Cc1ccccc1)C(=O)N[C@@H](COC(=O)[C@H](CC=C)CC(=O)OC(C)(C)C)Cc1c[nH]c2ccccc12	7.5%	-1.4%	-17.5%
COc1ccc(CCNC(=O)CSc2nc3[nH]ncc3c(=O)n2-c2ccc(Br)cc2)cc1OC	-1.7%	0.2%	-11.0%
Cc1ccc(C)c(C(=O)CN2C(=O)NC3(CCc4ccccc43)C2=O)c1 (stereo not drawn)	4.3%	0.5%	-29.6%
COc1cc(/C=C/C(=O)OCc2c(C)noc2C)ccc1OC(F)F	-1.4%	-5.1%	-17.6%
O=C(COC(=O)c1ccc(S(=O)(=O)N2CCCCC2)cc1)Nc1ccccc1	8.2%	2.0%	4.6%
CCN(CC)CCNC(=O)c1ccc(NC(=O)C2CC(=O)N(CCc3ccc(OC)c(OC)c3)C2)cc1 (stereo not drawn)	-5.6%	1.3%	-15.1%
CCc1cccc(NC(=O)CN(C)C2=NS(=O)(=O)c3ccccc32)c1	17.9%	2.4%	-3.7%
Cc1ccc(NC(=O)c2cc(=O)[nH]c3ccc(S(=O)(=O)N4CCOCC4)cc23)cc1	8.1%	0.1%	-6.1%
COc1ccc(NS(=O)(=O)c2cc(NC(=O)C3=NN(c4ccccc4)C(=O)CC3)ccc2OC)cc1	6.5%	-0.5%	26.8%
Cc1ccc(CN2CC(=O)N3[C@H]4c5cc(Cl)ccc5OC[C@@H]4[C@H](c4ccccc4)[C@]3(C)C2=O)cc1	2.9%	-10.0%	?
CCCCn1c(N)c(N(CC(C)C)C(=O)C2CCC2)c(=O)[nH]c1=O	-4.9%	3.7%	-14.9%
C#CCOCCOCCOCCNc1nc(N2CCN(C(=O)[C@H](CCCCN)n3cc([C@@H](N)[C@H](C)CC)nn3)CC2)nc(N2CCN(C(=O)[C@H](CCC(=O)O)n3cc([C@@H](N)CCSC)nn3)CC2)n1	7.0%	-5.8%	-1.9%
O=C(C[C@H]1C/C=C\C[C@H](NC(=O)OCC2c3ccccc3-c3ccccc32)C(=O)OC[C@@H]2CCCN2C1=O)NCCO	-3.0%	-2.0%	-22.9%

Compound profiles, from the list above:
CN(CC(=O)Nc1ccc(F)c(F)c1F)C(=O)CCCc1nc2ccccc2c(=O)[nH]1 in the list: RE007 growth inh: 9.4%; SARS PLP yeast: -5.5%; 2A StopGo: -6.0%
CCOC(=O)C1=CNS(=O)(=O)NC1c1ccc(Br)cc1F (stereo not drawn) in the list: RE007 growth inh: 0.0%; SARS PLP yeast: -16.5%; 2A StopGo: -11.3%

Further records follow.
SMILES	RE007 growth inh	SARS PLP yeast	2A StopGo
COC(=O)C1=C(c2ccc(OC)c(OC)c2)C[C@@H]2CC[C@H]1N2C(=O)N1CCCC1	9.2%	0.2%	0.0%
CCC(C)(C)NC(=O)Cn1c(-c2ccccc2)cc(C(C)=O)c1C	2.3%	-0.4%	-7.7%
COc1ccccc1CN(C)C(=O)CSc1nnc(C2CC2)n1C1CC1	5.4%	-1.9%	-19.4%
COc1ccc(-c2sc3cc(OC)c(OC)cc3c2-c2ccc(O)cc2)cc1	0.0%	-6.9%	-34.7%
COc1ccc([C@@H]2CC=C(C(=O)O)[C@H](c3ccc(Br)cc3)N2S(=O)(=O)c2ccc(C)cc2)cc1OC	9.8%	1.7%	26.5%
CCCCn1c(N)c(N(C)C(=O)c2cc3c(s2)CCCCC3)c(=O)[nH]c1=O	1.5%	1.1%	14.5%
Cn1nc(C(=O)NCc2cccc(F)c2)cc1C(=O)NCc1cccc(F)c1	-4.7%	0.4%	-13.6%
Cc1noc(C)c1NC(=O)Nc1cccc2c1O[C@H](CN(C)S(=O)(=O)c1ccc(F)cc1)[C@@H](C)CN([C@H](C)CO)C2=O	-14.7%	-3.0%	-18.8%
C[C@H](CO)N1C[C@H](C)[C@@H](CN(C)Cc2ccc(Cl)c(Cl)c2)Oc2c(NS(=O)(=O)c3ccc(F)cc3)cccc2C1=O	0.9%	3.8%	22.0%
Cc1cccc(C2=N/C(=C/c3cccs3)C(=O)O2)c1	-7.7%	-0.5%	-15.0%
Cc1cccc(C2=N/C(=C\c3cccs3)C(=O)O2)c1	6.6%	3.4%	20.3%
O=C(COc1ccc(Cl)cc1)NNC(=O)c1ccncc1	1.4%	2.6%	-14.6%
NS(=O)(=O)c1cccc(C(=O)OCC(=O)NC2CCCc3ccccc32)c1 (stereo not drawn)	-7.0%	-4.1%	-10.3%
CCO/C=C1/C(=O)N(c2ccc(OC)cc2)C(=O)c2ccccc21	1.3%	-3.0%	?
CN=C(c1ccc([N+](=O)[O-])cc1)N1CCCCC1	0.7%	-1.7%	-8.5%
COc1c2n(C)ccc3c-2n(c(=O)c1=O)c1ccccc31	-3.4%	-2.5%	-21.8%
O=[N+]([O-])c1ccc(S(=O)(=O)N/N=C/c2ccco2)cc1	23.8%	3.4%	12.8%
CC(C)CCCC(C)NC(=O)c1cc(S(=O)(=O)N2CCCCC2)ccc1N1CCOCC1 (stereo not drawn)	1.2%	-4.7%	-20.8%
COc1ccc([C@H]2CC(=O)C=C(c3cccc(F)c3OC)C2)cc1	11.1%	-3.4%	-4.8%
O=C(NCc1ccccc1CN1CCCC1)c1cccc(N2CCCC2=O)c1	20.2%	0.3%	-12.8%
Cc1nn(-c2ccccc2)c(C)c1C(=O)N1CCN(S(=O)(=O)c2ccccc2)CC1	-10.9%	12.5%	-24.8%
CCOC(=O)C1CCN(C(=O)COC(=O)/C=C/c2cccc(OC)c2OC)CC1	-15.4%	-1.9%	-3.7%
O=c1c2cc(F)ccc2sn1-c1ccccc1	11.2µM*	4.4%	-1.4%
CCc1ccc(CN(C)CC(=O)Nc2ccc(S(=O)(=O)N3CCOCC3)cc2)cc1	-1.2%	-0.2%[6.58 µM]	-25.2%
O=C(CSc1nc2ccccc2s1)N/N=C/c1ccc(C(=O)O)cc1	10.8%	0.0%	-1.9%

Arranged by count of non-hydrogen atoms (low to high): 3 of the compounds above
SMILES	RE007 growth inh	SARS PLP yeast	2A StopGo
CCCCn1c(N)c(N(C)C(=O)c2cc3c(s2)CCCCC3)c(=O)[nH]c1=O	1.5%	1.1%	14.5%
COc1ccc(-c2sc3cc(OC)c(OC)cc3c2-c2ccc(O)cc2)cc1	0.0%	-6.9%	-34.7%
Cc1noc(C)c1NC(=O)Nc1cccc2c1O[C@H](CN(C)S(=O)(=O)c1ccc(F)cc1)[C@@H](C)CN([C@H](C)CO)C2=O	-14.7%	-3.0%	-18.8%

Carrying on.
SMILES	RE007 growth inh	SARS PLP yeast	2A StopGo
COc1cccc2cc(C(=O)N(Cc3cccs3)CC3CCCO3)c(=O)oc12 (stereo not drawn)	-10.0%	0.7%	24.4%
O=S(=O)(c1cc(O)ccc1O)c1cccc2c(S(=O)(=O)c3cc(O)ccc3O)cccc12	12.3%	-7.4%	13.2%
CC1Cc2ccccc2N1CC(=O)N(C)c1c(N)n(Cc2ccccc2)c(=O)[nH]c1=O (stereo not drawn)	-3.6%	-7.5%	-12.6%
Cc1cccc(NC(=O)c2nc[nH]c2C(=O)N[C@H](C)c2ccccc2)c1	2.5%	3.9%	-25.4%
CN(CC(=O)Nc1ccc(F)c(F)c1F)C(=O)c1nn(Cc2ccccc2)c(=O)c2ccccc12	-1.7%	3.1%	-14.1%
O=S(=O)(Nc1cc(Cl)ccc1-n1cncn1)c1ccc(F)cc1	0.1%	4.1%	-24.3%
COC(=O)C1=C(c2ccccc2OCc2ccccc2)C[C@@H]2CC[C@H]1N2C(=O)NCc1ccc([N+](=O)[O-])cc1	8.0%	-3.6%	-13.7%
O=C1OC[C@H]2CCCC[C@@H](CO)ON12	-1.6%	15.4%	-18.0%
